Screens from PubChem.
UUG fidelity: alters start codon recognition fidelity in yeast; S. cerevisiae UUG-firefly luciferase reporter, luminescence/redox ratio; activity score, % at 18.7 µM; 0.13% of 350,000 active;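 active means replicate mean at a twofold rise or more, about +100% in these data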;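 further: firefly luciferase made from a UUG start codon reports start codon fidelity; reporter light over untreated wells divided by growth signal over untreated wells; some hits fall short of that in this replicate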
Numbers without * were called inactive. These rows are one share of the data; count on the stated rates, not on these rows.

SMILES | UUG fidelity
C[C@H]1CN([C@@H](C)CO)C(=O)c2cccc(NC(=O)Nc3ccc(C(F)(F)F)cc3)c2O[C@H]1CN(C)Cc1ccc(-c2ccccc2)cc1 | -12
C[C@@H]1CN([C@H](C)CO)C(=O)Cc2cc(NS(C)(=O)=O)ccc2O[C@H]1CN(C)Cc1ccc(Oc2ccccc2)cc1 | 5
C[C@H]1CN([C@@H](C)CO)C(=O)c2cc(NS(=O)(=O)c3cccs3)ccc2O[C@H]1CN(C)Cc1ccncc1 | -11
CC(C)NC(=O)N(C)C[C@H]1Oc2ccc(NC(=O)Cc3ccccc3)cc2CC(=O)N([C@@H](C)CO)C[C@H]1C | -1
CO[C@@H]1CN(C)C(=O)c2ccc(NS(C)(=O)=O)cc2OC[C@H](C)N(CC2CC2)C[C@H]1C | -11
CN1c2ccc(C#Cc3cccnc3)cc2[C@@H]2[C@@H](CCN2C(=O)c2cccc(F)c2)[C@H]1CO | -3
COc1ccc(S(=O)(=O)Nc2ccc3c(c2)C(=O)N([C@H](C)CO)C[C@@H](C)[C@@H](CN(C)C(=O)NC2CCCCC2)O3)cc1 | -13
CC(=O)N1[C@H](CO)[C@H](c2ccccc2)[C@H]1CNC(=O)CN1CCOCC1 | -8
N#Cc1ccc(-c2ccc3c(c2)[C@H]2[C@H](CCN2S(=O)(=O)c2cccc(F)c2)[C@H](CO)N3)cc1 | -7
CC(C)C#Cc1ccc([C@H]2[C@H]3CN(C(=O)NC(C)C)CCCCN3[C@H]2CO)cc1 | 0
CO[C@H]1CN(C)C(=O)c2ccc(NS(=O)(=O)c3ccc(Cl)cc3)cc2OC[C@@H](C)NC[C@@H]1C | -1
COCC(=O)N1[C@@H](CO)[C@H](c2ccccc2)[C@@H]1CN(C)C(=O)c1ccncc1 | -7
CO[C@@H]1CN(C)C(=O)c2ccc(NC(=O)C3CC3)cc2OC[C@@H](C)N(C(=O)Cc2ccccn2)C[C@H]1C | -1
CO[C@@H]1CN(C)C(=O)c2ccc(NC(=O)C3CC3)cc2OC[C@@H](C)N(Cc2cccnc2)C[C@H]1C | -7
CCN(C[C@H]1[C@H](c2ccccc2)[C@@H](CO)N1C(C)=O)C(=O)NC(C)C | 2
CN(C)C(=O)c1cccc(-c2ccc3c(c2)[C@H]2[C@H](CCN2C(=O)c2ccc(F)cc2)[C@@H](CO)N3C)c1 | 21
C[C@H](CO)N1C[C@H](C)[C@H](CN(C)Cc2ccc(C(F)(F)F)cc2)Oc2ccc(NS(=O)(=O)c3ccccc3)cc2C1=O | 10
Cc1ccc(S(=O)(=O)Nc2cccc3c2O[C@@H](CN(C)Cc2ccc(C(F)(F)F)cc2)[C@@H](C)CN([C@@H](C)CO)C3=O)cc1 | 15
C[C@H](CO)N1C[C@H](C)[C@@H](CN(C)S(=O)(=O)c2cn(C)cn2)Oc2ccc(NC(=O)Nc3cccc4ccccc34)cc2C1=O | 14
CN(C)C(=O)c1ccc(-c2ccc3c(c2)[C@H]2[C@H](CCN2C(=O)C2CCOCC2)[C@@H](CO)N3C)cc1 | 5
CNC[C@@H]1Oc2ccc(NC(=O)Cn3cnnn3)cc2C(=O)N([C@@H](C)CO)C[C@H]1C | -14
O=C(C[C@@H]1CC[C@@H]2[C@H](COC[C@H](O)CN2S(=O)(=O)c2ccccc2Cl)O1)NCc1ccccc1Cl | 7
O=C(C[C@H]1CC[C@@H]2[C@H](COC[C@@H](O)CN2Cc2cc(F)ccc2F)O1)NCc1ccccc1 | 4
CO[C@H]1CN(C)C(=O)c2ccc(NC(C)=O)cc2OC[C@H](C)N(Cc2ccc(F)cc2)C[C@@H]1C | 0
Cc1ccccc1S(=O)(=O)N1CCCCN2[C@H](CO)[C@H](c3ccc(-c4cccc(F)c4)cc3)[C@@H]2C1 | 14
CNC[C@H]1Oc2ccc(NC(=O)NC3CCCCC3)cc2C(=O)N([C@@H](C)CO)C[C@@H]1C | -4
C[C@@H]1CN([C@H](C)CO)C(=O)c2cc(NS(C)(=O)=O)ccc2O[C@@H]1CN(C)C(=O)NC1CCCCC1 | -7
C[C@H](O)C#Cc1ccc([C@@H]2[C@@H](CO)N3CCCCN(S(=O)(=O)c4ccccc4)C[C@@H]23)cc1 | 12
COc1ccc(-c2ccc3c(c2)[C@H]2[C@H](CCN2S(=O)(=O)C2=NC(C)C=N2)[C@@H](CO)N3C)cc1 (stereo partly specified) | 4
CC(C)NC(=O)N1C[C@@H]2[C@H](c3ccccc31)[C@@H](CO)N2C(=O)c1cccnc1 | 6

As entered above.
For UUG fidelity, CCN(C[C@H]1[C@H](c2ccccc2)[C@@H](CO)N1C(C)=O)C(=O)NC(C)C has 2
For UUG fidelity, CO[C@H]1CN(C)C(=O)c2ccc(NC(C)=O)cc2OC[C@H](C)N(Cc2ccc(F)cc2)C[C@@H]1C has 0
For UUG fidelity, N#Cc1ccc(-c2ccc3c(c2)[C@H]2[C@H](CCN2S(=O)(=O)c2cccc(F)c2)[C@H](CO)N3)cc1 has -7
For UUG fidelity, CC(C)C#Cc1ccc([C@H]2[C@H]3CN(C(=O)NC(C)C)CCCCN3[C@H]2CO)cc1 has 0

(continued)
SMILES | UUG fidelity
C[C@H]1CN([C@@H](C)CO)C(=O)Cc2cc(NC(=O)C3CCCCC3)ccc2O[C@@H]1CN(C)C(=O)NC1CCCCC1 | 8
C[C@@H]1CN([C@@H](C)CO)C(=O)c2cc(NS(=O)(=O)c3cccs3)ccc2O[C@H]1CN(C)Cc1ccncc1 | -7
Cc1noc(C)c1S(=O)(=O)N(C)C[C@H]1Oc2c(NC(=O)c3ccc(-c4nccs4)cc3)cccc2C(=O)N([C@H](C)CO)C[C@H]1C | 12
C[C@@H]1CN([C@H](C)CO)C(=O)c2cc(NC(=O)Nc3ccc4c(c3)OCO4)ccc2O[C@@H]1CN(C)C | -2
N#Cc1ccc(-c2ccc([C@@H]3[C@@H](CO)N4CCCCN(C(=O)Nc5ccc(F)cc5)C[C@H]34)cc2)cc1 | -3
C[C@H]1CN([C@@H](C)CO)C(=O)c2cccc(NC(=O)Nc3ccccc3)c2O[C@H]1CN(C)C(=O)Nc1cccc2ccccc12 | 2
O=C(Nc1ccc(F)cc1)N1C[C@H]2[C@@H](c3ccccc31)[C@@H](CO)N2C(=O)c1ccncc1 | -7
COc1cccc(C(=O)Nc2ccc3c(c2)OC[C@@H](C)N(C(=O)C2CCCC2)C[C@H](C)[C@H](OC)CN(C)C3=O)c1 | -1
C[C@@H]1CN([C@H](C)CO)C(=O)c2cccc(NC(=O)Nc3ccc(C(F)(F)F)cc3)c2O[C@@H]1CN(C)C | -5
C[C@H](CO)N1C[C@H](C)[C@@H](CN(C)S(=O)(=O)c2ccccc2)Oc2ccc(NC(=O)Nc3ccc(F)cc3)cc2C1=O | -2
O=C(C[C@@H]1CC[C@H]2[C@@H](COC[C@@H](O)CN2Cc2ccccc2)O1)N[C@@H]1CCN(Cc2ccccc2)C1 | 17
C[C@H]1CN([C@@H](C)CO)C(=O)c2c(c3ccccc3n2C)-c2ccccc2CO[C@@H]1CN(C)S(C)(=O)=O | 11
Cc1ccccc1-c1ccc([C@@H]2[C@@H](CO)N3CCCCN(C(=O)Nc4ccc(F)cc4)C[C@@H]23)cc1 | 30
Cc1ccc(S(=O)(=O)Nc2ccc3c(c2)C(=O)N([C@H](C)CO)C[C@H](C)[C@@H](CN(C)C(=O)Nc2ccccc2)O3)cc1 | 2
C[C@H](CO)N1C[C@H](C)[C@@H](CN(C)CC2CC2)Oc2ccc(NS(=O)(=O)c3ccccc3)cc2CC1=O | -3
CO[C@@H]1CN(C)C(=O)c2ccc(NC(=O)C3CCCC3)cc2OC[C@@H](C)NC[C@@H]1C | -4
CO[C@H]1CN(C)C(=O)c2ccc(NS(=O)(=O)c3cccc(F)c3)cc2OC[C@H](C)N(Cc2cc(F)ccc2F)C[C@@H]1C | -11
CC(C)NC(=O)N(C)C[C@H]1Oc2ccc(NC(=O)CCCN(C)C)cc2C(=O)N([C@@H](C)CO)C[C@@H]1C | 15
COc1ccc(CN(C)C[C@@H]2Oc3c(NC(=O)Nc4c(C)noc4C)cccc3C(=O)N([C@@H](C)CO)C[C@@H]2C)cc1 | -15
CO[C@@H]1CN(C)C(=O)c2ccc(NS(=O)(=O)c3cccc(F)c3)cc2OC[C@@H](C)N(Cc2cc(F)ccc2F)C[C@@H]1C | -1
CCC(=O)N1[C@H](CO)[C@@H](c2ccccc2)[C@@H]1CN(C)C(=O)CN1CCOCC1 | -8
O=S(=O)(c1ccccc1)N1CCCCN2[C@H](CO)[C@@H](c3ccc(-c4cncnc4)cc3)[C@H]2C1 | 0
CCCC(=O)Nc1ccc2c(c1)C(=O)N(C)C[C@H](OC)[C@@H](C)CN(Cc1cccc(F)c1)[C@H](C)CO2 | -12
CN1c2ccc(-c3cccc(C#N)c3)cc2[C@H]2[C@H](CCN2C(=O)C2CCC2)[C@H]1CO | 8
CO[C@H]1CN(C)C(=O)c2cc(NC(=O)Nc3c(C)noc3C)ccc2OC[C@H](C)N(CC2CC2)C[C@H]1C | -8
CCCNC(=O)[C@H]1[C@H](CO)[C@H]2Cn3c(cccc3=O)[C@@H]1N2C(=O)Nc1cc(F)ccc1F | 5
N#Cc1ccc(-c2ccc([C@H]3[C@@H](CO)N4CCCCN(C(=O)Nc5ccc(F)cc5)C[C@@H]34)cc2)cc1 | 27
C[C@@H]1CN([C@H](C)CO)C(=O)c2ccccc2-c2ccccc2CO[C@@H]1CN(C)S(=O)(=O)c1ccc(F)cc1 | -3
C[C@@H]1CN([C@@H](C)CO)C(=O)c2cc(NC(=O)CCN3CCOCC3)ccc2O[C@H]1CN(C)C(=O)Nc1ccccc1 | 17
OC[C@@H]1[C@@H](c2ccc(C#CC3(O)CCCC3)cc2)[C@@H]2CN(Cc3cncnc3)CCCCN12 | -1
COc1ccc(NC(=O)N(C)C[C@@H]2Oc3ccc(NS(C)(=O)=O)cc3C(=O)N([C@H](C)CO)C[C@@H]2C)cc1 | -17
CN(C)c1ccc2c(c1)[C@@H]1C[C@@H](CC(=O)NCc3ccccc3F)O[C@@H](CO)[C@@H]1O2 | -8
C[C@@H]1CN([C@@H](C)CO)C(=O)CCCn2cc(nn2)CO[C@@H]1CN(C)Cc1cccc(C(=O)O)c1 | -13
O=C(C[C@@H]1C[C@H]2c3cc(NC(=O)Nc4ccccc4)ccc3O[C@H]2[C@@H](CO)O1)NCC(F)(F)F | 1
CC(C)NC(=O)N1CCCCN2[C@H](CO)[C@@H](c3ccc(C#Cc4ccccc4F)cc3)[C@@H]2C1 | 10
O=C(CC(F)(F)F)N1C[C@@H]2[C@H](c3ccccc31)[C@H](CO)N2C(=O)C1CCCC1 | 43
CCCNC(=O)C[C@H]1C[C@@H]2c3cc(N(C)C)ccc3O[C@@H]2[C@@H](CO)O1 | -23
CO[C@@H]1CN(C)C(=O)c2ccc(NS(=O)(=O)c3ccccc3C)cc2OC[C@@H](C)NC[C@@H]1C | 5
C[C@H](CO)N1C[C@H](C)[C@H](CN(C)Cc2ccc(-c3ccccc3)cc2)Oc2c(NS(=O)(=O)c3cccs3)cccc2C1=O | 5
C[C@@H]1CN([C@H](C)CO)C(=O)c2cc(NC(=O)Nc3ccc(C(F)(F)F)cc3)ccc2O[C@@H]1CN(C)S(C)(=O)=O | 9
C[C@H](CO)N1C[C@H](C)[C@@H](CN(C)C)Oc2ccc(NS(=O)(=O)c3cn(C)cn3)cc2CC1=O | -9
Cc1ccccc1-c1ccc([C@@H]2[C@@H](CO)N3CCCCN(C(=O)NC4CCCC4)C[C@H]23)cc1 | 11
COC(=O)C[C@@H]1CC[C@@H]2[C@H](COc3ccc(NC(=O)c4cc(C)on4)cc3C(=O)N2C)O1 | 12
CO[C@@H]1CN(C)C(=O)c2ccc(NC(=O)c3ccccc3F)cc2OC[C@H](C)N(CC2CCOCC2)C[C@H]1C | -3
C/C=C/c1ccc([C@H]2[C@@H](CO)N(C(C)=O)[C@H]2CN(CC(C)C)C(C)=O)cc1 | 7
CCNC(=O)C[C@@H]1CC[C@@H]2[C@H](COC[C@H](O)CN2C(=O)Nc2ccc3c(c2)OCO3)O1 | -13
C[C@H]1CN([C@@H](C)CO)C(=O)c2c(c3ccccc3n2C)-c2ccccc2CO[C@H]1CN(C)S(=O)(=O)c1ccc(F)cc1 | 10
CCN(C[C@H]1[C@@H](c2ccccc2)[C@@H](CO)N1C(C)=O)C(=O)c1ccccn1 | 127*
C[C@@H](NC(=O)C[C@H]1CC[C@H]2[C@@H](COC[C@H](O)CN2C(=O)Nc2cccc(F)c2)O1)c1ccccc1 | 18
COc1ccc(CN(C)C[C@@H]2Oc3c(NS(=O)(=O)c4ccc(C)cc4)cccc3C(=O)N([C@H](C)CO)C[C@@H]2C)cc1 | 1
C/C=C/c1ccc([C@@H]2[C@H](CO)N(S(C)(=O)=O)[C@H]2CN(CC)C(C)=O)cc1 | 3
CC(C)CC#Cc1ccc([C@H]2[C@@H](CO)N3CCCCN(C(=O)Nc4ccccc4)C[C@H]23)cc1 | 3
Cn1cnc(S(=O)(=O)N2CCCCN3[C@H](CO)[C@H](c4ccc(-c5cccc(F)c5)cc4)[C@@H]3C2)c1 | -4
C[C@H](CO)N1C[C@H](C)[C@@H](CN(C)C)Oc2ccc(NS(=O)(=O)c3cccs3)cc2CC1=O | 15
CN1c2ccc(-c3ccccc3)cc2[C@H]2[C@H](CCN2C(=O)Cc2ccccn2)[C@@H]1CO | -2
CO[C@@H]1CN(C)C(=O)c2ccc(NC(=O)C3CC3)cc2OC[C@H](C)N(CC2CC2)C[C@@H]1C | 0

Grouped by structure, the compounds so far with a cyano group.
SMILES | UUG fidelity
N#Cc1ccc(-c2ccc3c(c2)[C@H]2[C@H](CCN2S(=O)(=O)c2cccc(F)c2)[C@H](CO)N3)cc1 | -7
N#Cc1ccc(-c2ccc([C@@H]3[C@@H](CO)N4CCCCN(C(=O)Nc5ccc(F)cc5)C[C@H]34)cc2)cc1 | -3
CN1c2ccc(-c3cccc(C#N)c3)cc2[C@H]2[C@H](CCN2C(=O)C2CCC2)[C@H]1CO | 8
N#Cc1ccc(-c2ccc([C@H]3[C@@H](CO)N4CCCCN(C(=O)Nc5ccc(F)cc5)C[C@@H]34)cc2)cc1 | 27
